Screens as filed in PubChem BioAssay.
CSC inhib – cancer stem cell viability inhibitors, primary screen, luminescence; cancer stem cell-like cells viability; inhibition, % at 7.5 µM; 300,000 compounds, 1.1% hits; AID 2717, 2010;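 active = mean at 75% or more and at least half the replicates too; inconclusive = mean and replicates disagree; tested in HMLE shEcad cells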;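 note: 0% = median of negative and 100% = median of positive control wells; the first replicate is given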
HIV Env fusion – inhibitors of HIV-1 Env-driven cell-cell fusion, primary screen, HeLa-JRFL effector, CEM21 target cells, luciferase | inhibition, % at 12.3 µM | 360,000 compounds, 1.1% hits | AID 651610, 2012;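 active = mean replicate inhibition score of at least 50 and every replicate individually at or above 50; inconclusive = only one of the two criteria met; inactive = mean below 50 and not all replicates reaching 50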;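 note: 0% = plate neutral controls and 100% = maraviroc near 300 nM; one replicate is shown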
Yeast UUG start – modulators of yeast start codon fidelity, primary screen, whole organism, S. cerevisiae, single point, plate reader. S. cerevisiae UUG-firefly luciferase reporter, luminescence/redox ratio. activity score, % at 18.7 µM. 350,000 compounds, 0.13% hits;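 active = replicate mean at a twofold rise or more, about +100% in these data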;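 note: firefly luciferase made from a UUG start codon reports start codon fidelity; reporter light over untreated wells divided by growth signal over untreated wells; some hits fall short of that in this replicate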
PABP polyA inh – PABP poly(A) RNA binding inhibitors, primary screen, biochemical, fluorescence polarization, uHTS; Polyadenylate-binding protein 1 (Homo sapiens), P11940; inhibition, % at 35 µM; 290,000 compounds, 1% hits;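 active = 50% or more with normal probe brightness, or confirmed in later tests; inconclusive = above 50% with abnormal brightness, or retests that disagree; inactive = below 50% or failed in later tests; about a fifth of its hits are not listed in these tables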;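 note: calls also rest on retests at 20 µM and on dose response follow-up; controls were probe without protein and protein plus probe with vehicle; some compounds called inactive have numbers as strong as hits; many hits fall short of the cut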
Target sequence (P11940 whole entry, looked up): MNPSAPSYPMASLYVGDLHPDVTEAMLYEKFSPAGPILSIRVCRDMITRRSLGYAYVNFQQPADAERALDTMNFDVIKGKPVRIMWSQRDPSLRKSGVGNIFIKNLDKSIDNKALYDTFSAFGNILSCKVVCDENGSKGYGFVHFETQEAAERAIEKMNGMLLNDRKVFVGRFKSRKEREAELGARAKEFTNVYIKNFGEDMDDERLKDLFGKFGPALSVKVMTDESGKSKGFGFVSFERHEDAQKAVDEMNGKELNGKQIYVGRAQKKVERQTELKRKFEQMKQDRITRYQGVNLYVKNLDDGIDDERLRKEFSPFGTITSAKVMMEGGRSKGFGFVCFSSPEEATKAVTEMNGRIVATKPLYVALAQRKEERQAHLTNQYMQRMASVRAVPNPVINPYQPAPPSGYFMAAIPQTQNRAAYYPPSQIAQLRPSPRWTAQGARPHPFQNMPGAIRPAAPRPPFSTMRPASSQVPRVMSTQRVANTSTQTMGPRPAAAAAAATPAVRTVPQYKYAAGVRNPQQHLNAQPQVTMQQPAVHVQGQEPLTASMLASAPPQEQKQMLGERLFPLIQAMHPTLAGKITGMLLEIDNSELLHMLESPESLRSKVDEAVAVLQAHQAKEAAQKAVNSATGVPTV
Rce1 inh – yeast Rce1p protease inhibitors, primary screen, biochemical, fluorescence, cell-free homogeneous. CAAX prenyl protease 2 (Saccharomyces cerevisiae (strain ATCC 204508 / S288c)), Q03530. calls only. yeast membranes, quenched prenylated peptide cleavage fluorescence. 290,000 compounds, 0.27% hits;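 active = fall in fluorescence gain of 50% or more versus controls, with final raw signal at or below 3038400; inconclusive = same 50% fall but final raw signal above 3038400; inactive = fall in fluorescence gain under 50%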;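 note: plate controls were neutral control wells for no effect and wells lacking membranes for full effect; tested at 10 µM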
MT1-MMP act inh – blockers of MT1-MMP proenzyme processing, primary screen, HT1080 RFP-PRO-GFP cells, GFP/RFP fluorescence; Matrix metalloproteinase-14 (Homo sapiens), P50281; GFP/RFP ratio fluorescence, overnight; percent of plate control window, DMSO zero; GFP/RFP ratio change, % at 20 µM; 360,000 compounds, 0.061% hits;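 active = GFP/RFP ratio change of at least 30% with cell ATP level not reduced by more than half and red fluorescence within 50% of control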; note: strong numbers were not always called active
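Material: RFP-PRO-GFP reporter HT1080 cells. Dosing: single-point 20 µM compound, 1% DMSO. Controls: DMSO and RFP-L50D-GFP cell wells. Timing: cells overnight before dosing, compound overnight, 37 °C, 5% CO2. Measure: GFP/RFP fluorescence ratio.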
eIF4H FP inh – human eIF4H binding inhibitors, primary screen, translation initiation inhibitor project, biochemical, uHTS, fluorescence polarization; 290,000 compounds, 0.94% hits; inhibition, % at 35 µM; Eukaryotic translation initiation factor 4H (Homo sapiens), Q15056; AID 2012, 2009; eIF4H fluorescence polarization binding assay;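 active = 50% or more with normal probe brightness, or confirmed in later tests; inconclusive = above 50% with abnormal brightness, or retests that disagree; inactive = below 50% or failed in later tests; about a fifth of its hits are not listed in these tables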;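 note: calls also rest on retests at 20 µM and on dose response follow-up; 0% = protein and probe with vehicle and 100% = probe without protein; strong numbers were not always called active; many hits fall short of the cut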
MT1-MMP act inh RFP – also measured in MT1-MMP act inh; calls as there; RFP signal change, %; measured here: RFP expression control read;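 0 = vehicle wells; hits needed this value within 50% of zero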
The depositor's hits bear a star; i = inactive; ? = inconclusive; · = not tested or not shown. A portion of the library; rates above refer to the full screens.

SMILES	CSC inhib	HIV Env fusion	Yeast UUG start	PABP polyA inh	Rce1 inh	MT1-MMP act inh	MT1-MMP act inh RFP	eIF4H FP inh
Cc1ccc(C(=O)Nc2ccc(N3CCCC3)cc2)cc1	-6	-35	-5	-21	i	3	2	6
O=C(Nc1nc(-c2nc3ccccc3s2)cs1)c1ccco1	-5	-66	-5	?	i	4	2	3
COc1ccccc1NC(=O)C1=C(C)NC(=O)NC1c1ccccc1F (stereo not given)	-5	-18	-5	4	·	-2	3	-2
CSc1nc2sc3c(c2c(=O)[nH]1)CCCC3	-12	·	·	6	i	1	1	-8
CC(=O)NS(=O)(=O)c1ccc(N/C(N)=N/c2nc(C)cc(C)n2)cc1	-1	-1	12	11	i	-2	2	-7
CC(C)(C)NC(=O)NC(=O)CN1CCN(S(=O)(=O)c2ccc3c(c2)OCCO3)CC1	5	9	·	0	i	-1	-2	2
NC(=O)C1CCN(C(=O)CSc2ccccn2)CC1	-4	·	8	-8	i	7	3	0
N#C/C(=C/c1ccc(-c2ccc(S(N)(=O)=O)cc2)o1)C(=O)Nc1ccccc1	1	-21	-5	8	i	-1	-1	4

2 entries from above in another layout:
Results follow in this order: CSC inhib | HIV Env fusion | Yeast UUG start | PABP polyA inh | Rce1 inh | MT1-MMP act inh | MT1-MMP act inh RFP | eIF4H FP inh
N#C/C(=C/c1ccc(-c2ccc(S(N)(=O)=O)cc2)o1)C(=O)Nc1ccccc1
→ 1 | -21 | -5 | 8 | i | -1 | -1 | 4
Cc1ccc(C(=O)Nc2ccc(N3CCCC3)cc2)cc1
→ -6 | -35 | -5 | -21 | i | 3 | 2 | 6

(continued)
SMILES	CSC inhib	HIV Env fusion	Yeast UUG start	PABP polyA inh	Rce1 inh	MT1-MMP act inh	MT1-MMP act inh RFP	eIF4H FP inh
COc1ccc(OC)c(S(=O)(=O)N(C)CC(=O)O)c1	1	·	-7	6	i	0	5	-4
Cc1ccc(NC(=O)c2c(F)cccc2Cl)cc1NS(C)(=O)=O	-14	-5	·	-8	i	3	6	0
CC(=O)Nc1ccc(C(=O)NNC(=O)c2cccc(C)c2)cc1	-13	19	-7	1	i	-1	2	-9
Cn1c(=O)c2[nH]c(N3CCCCC3)nc2n(C)c1=O	5	-2	-9	2	i	3	9	-8
CC(C)(C)c1ccc(C(=O)c2c[nH]c(C(=O)NCCCN3CCOCC3)c2)cc1	-8	-12	3	-9	i	12	4	-8
O=C(O/N=C1/CCCc2occc21)c1ccc(Cl)cc1Cl	-8	12	-12	-3	i	3	2	-5
Cc1ccccc1Cn1ccc(NC(=O)CCSc2nc(-c3ccco3)cc(C(F)(F)F)n2)n1	1	·	12	-1	i	-6	-6	-12
COc1ccc(C(=O)Sc2ccc(C)cc2)cc1OC	-7	-46	-17	4	i	-2	-14	-4
CCN1CCN(CCC(=O)Nc2ccccc2OC)CC1	-12	·	-15	-8	i	3	-1	-9
CCN(CC)c1ccc(CNc2ccc3c(c2)ncn3C(C)(C)C)cc1	-3	25	-21	2	i	3	0	5
O=C(COS(=O)c1ccccc1)Nc1cc(Cl)ccc1N1CCOCC1 (stereo not given)	-1	-12	-8	-7	i	-1	2	2
Cc1nn(-c2ccccc2)c2[nH]c(=O)c(CNc3ccc(N4CCOCC4)cc3)cc12	8	·	-5	13	i	-1	3	50
C=CCN(CC=C)C(=S)NC(=O)/C=C/c1ccc(OC)cc1	-9	7	-27	11	i	4	2	-7
Cc1ccc(NC(=O)c2cccs2)cc1S(=O)(=O)N(C)C	-15	20	0	10	i	0	-1	1
CN(Cc1c(C(=O)N/N=C/c2cccc(Cl)c2)nnn1-c1nonc1N)c1ccccc1	11	6	-22	-5	i	4	5	-4
O=[N+]([O-])c1ccc(COc2ccc(-c3[nH]ncc3-c3ccccc3)c(O)c2)cc1	118*	-16	·	-6	i	9	4	1
CCOc1ccc(N2C(=O)CC(Sc3nccc(C)n3)C2=O)cc1 (stereo not given)	-10	·	-9	-11	i	3	3	-3
CC12CNCC(C)(CN(C(c3ccccc3)c3ccccc3)C1)C2	39	·	·	27	i	4	-6	8
COc1ccc(N2CCN(S(=O)(=O)c3c(C)nc4scc(C)n4c3=O)CC2)cc1	-2	1	-6	5	i	2	-3	12
CCOC(=O)C1CCN(C(=O)COC(=O)c2ccccc2C(=O)c2ccc(Cl)cc2)CC1	-8	13	-2	·	i	-1	-1	·
CN(C)S(=O)(=O)N1CCC(Oc2cccc(C(=O)NC3CCOC3)c2)CC1 (stereo not given)	-5	-9	-6	2	i	-2	-4	-2
COc1ccc(C(=O)NC(=S)NCCc2ccccc2)cc1	-1	-13	·	-3	i	8	2	-2
Cn1c(=O)c2c(nc(NCc3ccc4c(c3)OCO4)n2Cc2ccccc2Cl)n(C)c1=O	6	-10	-6	-9	i	-4	-6	-12
C=CCNc1nc(-c2sc(NC(C)=O)nc2C)cs1	8	-35	-6	8	i	-7	-3	-10

6 entries picked at random from the list so far, as already listed:
SMILES	CSC inhib	HIV Env fusion	Yeast UUG start	PABP polyA inh	Rce1 inh	MT1-MMP act inh	MT1-MMP act inh RFP	eIF4H FP inh
COc1ccc(N2CCN(S(=O)(=O)c3c(C)nc4scc(C)n4c3=O)CC2)cc1	-2	1	-6	5	i	2	-3	12
C=CCNc1nc(-c2sc(NC(C)=O)nc2C)cs1	8	-35	-6	8	i	-7	-3	-10
CCOc1ccc(N2C(=O)CC(Sc3nccc(C)n3)C2=O)cc1 (stereo not given)	-10	·	-9	-11	i	3	3	-3
CC12CNCC(C)(CN(C(c3ccccc3)c3ccccc3)C1)C2	39	·	·	27	i	4	-6	8
CCOC(=O)C1CCN(C(=O)COC(=O)c2ccccc2C(=O)c2ccc(Cl)cc2)CC1	-8	13	-2	·	i	-1	-1	·
COc1ccc(C(=O)NC(=S)NCCc2ccccc2)cc1	-1	-13	·	-3	i	8	2	-2

Carrying on.
SMILES	CSC inhib	HIV Env fusion	Yeast UUG start	PABP polyA inh	Rce1 inh	MT1-MMP act inh	MT1-MMP act inh RFP	eIF4H FP inh
CCN(C(=O)CN1CCOCC1)c1c(N)n(Cc2ccccc2)c(=O)[nH]c1=O	-10	1	-19	?	i	0	3	-7
Cc1ccc(CNC(=O)[C@H](C)N2C(=O)N3CCc4c([nH]c5ccccc45)[C@@]3(C)C2=O)cc1	-6	·	1	-7	·	1	-12	-5
COc1ccc(NC(=O)c2cc(C3CCCCN3C(=O)c3cc(C(C)(C)C)nn3C)on2)c(C)c1 (stereo not given)	·	3	-10	·	·	-7	-21	·
COc1ccc(C(=O)Nc2nnc(Cc3ccc(OC)c(OC)c3)s2)c(OC)c1	18	-13	-18	9	i	12	-15	-12
COc1ccc(CCNC(=O)CCn2c(=O)c3cccn3c3cccnc32)cc1OC	-7	1	-6	-15	i	1	5	-7
COCCn1c(SCc2nc3ccccc3c(=O)[nH]2)nnc1-c1ccncc1	·	·	-26	8	i	-3	1	14
C/C=C/C=C\C(=O)Nc1cccc(C2=NOC3(C2)C[C@@H](C(N)=O)N(C(=O)c2cc([N+](=O)[O-])cc([N+](=O)[O-])c2)C3)c1 (stereo not given in full)	-16	-9	-7	-4	i	5	-2	-4
Cc1cccc(OCCn2c(NC(=O)c3ccco3)nc3ccccc32)c1	24	2	2	-7	i	-16	-18	14
COCCNC(=O)COC(=O)c1cccnc1SC	-7	12	-2	2	i	2	5	-9
O=C(C1CC1)N1CCc2cc(Br)cc(S(=O)(=O)NCCCN3CCCC3)c21	2	-82	4	-19	i	1	2	-6
CC(C1CC2CCC1C2)N1CC(O)=C(c2nc3ccccc3[nH]2)C1=N (stereo not given)	3	24	-27	6	i	-7	1	29
Cc1ccc(NCc2nnc(SCC(=O)NCc3ccco3)n2CC2CCCO2)c(C)c1 (stereo not given)	9	20	-7	-2	i	-3	-2	-2
Cc1ccc(C(=O)COC(=O)CNC(=O)Cc2ccccc2)cc1	6	22	-5	-2	i	-3	3	-7
COc1ccc([C@@H]2CC(=O)c3c(O)cc(O[C@@H]4OC(CO[C@@H]5OC(C)[C@H](O)[C@H](O)C5O)[C@@H](O)[C@@H](O)C4O)cc3O2)cc1O (stereo not given in full)	1	-74	-18	·	i	1	3	·
CN(C)S(=O)(=O)c1cccc(NC(=O)COC(=O)c2c[nH]c(=O)[nH]c2=O)c1	0	-7	·	-4	i	1	6	4
COc1ccccc1NC(=O)Nc1nc(C(N)Cc2ccc(Cl)cc2)cs1 (stereo not given)	·	64*	1	·	·	-1	-7	·
O=C(c1ccc(OCC2CCCO2)cc1)N1CCN(c2ccccc2)CC1 (stereo not given)	8	-8	-4	-6	i	2	1	-1
CCC1CCCCN1CCCNC(=O)CS(=O)Cc1nc(-c2ccc(OC)c(OC)c2)oc1C (stereo not given)	-3	-4	-22	7	i	2	5	-2
O=C(CN1C(=O)NC2(CCCC2)C1=O)Nc1ccccc1	-5	4	-17	2	i	1	2	-2
O=C(Cc1ccccc1)NCC(=O)OCC(=O)c1ccc(Cl)c([N+](=O)[O-])c1	·	-20	-8	-10	i	-2	0	-6
O=C(CSc1ccc2ccccc2c1)Nc1nc2ccccc2[nH]1	20	-44	·	-5	i	3	4	-3
Cc1ccc(/C([O-])=C(/C(=S)NCCN2CCOCC2)[n+]2ccccc2)cc1[N+](=O)[O-]	-13	2	-16	4	i	0	0	15
Cc1ccc(C)c(NC(=O)CSc2n[nH]c(-c3ccncc3)n2)c1	-9	·	-8	-6	i	-1	0	-11
CCOC(=O)C1C(=O)NC(SCC(N)=O)=C(C#N)C1c1ccccc1OCC (stereo not given)	3	-16	-4	32	i	-230	11	26
